gsp antagonist: gsp mutant antagonism; actives 0.4% (n = 340,000); AID 624288; Potency, µM (doses to about 76.9 µM), for the others: top-dose activity change, negative = inhibition, usual class: inhibitors; gsp-mutant cells, cAMP HTRF, 30 min; control for the full effect not named in the record; active = falling curve of any shape with a large fitted effect; inconclusive = falling curve, mostly with a smaller effect; inactive = flat or rising curve; cell line not stated here;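 further: intracellular cAMP measured with PDE inhibitor Ro 20-1724 present during compound exposure; potency means the concentration at half of the fitted maximal effect; on the % scale 0 is the no-effect control and ±100 the full control effect; nearly all actives have a fitted effect of over 65% in size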
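G418-selected cells were plated in DMEM/10% FBS for 16-24 h at 37C, then treated with compounds plus the PDE inhibitor […] (300 uM solution added) for 30 min at 37C. Intracellular cAMP was measured by HTRF after 30 min lysis at room temperature.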
ClpP mod: qHTS Assay for Activators of ClpP; ATP-dependent Clp protease proteolytic subunit (Bacillus subtilis (strain 168)), P80244; Potency, µM (highest dose often 57.5 µM), for the others: at the highest dose activity change, negative = active; actives 1.9% (n = 340,000); purified B. subtilis ClpP, FRET peptide cleavage, 20 min; AID 651965, 2013; active = well fitted falling curve with a large enough effect; inconclusive = small, poorly fitted or top-dose-only effect; inactive = no such curve, though single readings can be large or run the other way; further: potency means the concentration at half of the fitted maximal effect; the source files actives as falling curves though it sought activators and does not explain the sign; nearly all actives have a fitted effect of over 65% in size; many hits overshoot -100%
Target sequence (P80244 whole entry, looked up): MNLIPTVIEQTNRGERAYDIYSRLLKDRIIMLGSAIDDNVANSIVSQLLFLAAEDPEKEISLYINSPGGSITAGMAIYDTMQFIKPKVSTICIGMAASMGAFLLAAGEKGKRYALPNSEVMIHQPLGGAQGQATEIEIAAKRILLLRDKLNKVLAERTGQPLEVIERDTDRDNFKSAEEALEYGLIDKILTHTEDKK
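ClpP 10 microg/mL final, pH 8 Tris/KCl buffer with BSA, glycerol, Tween-20; compound pinned in; FRET-FV substrate; RT 20 min; Ex320/Em430; ΔFRET vs ADEP 5.8 microM, DMSO, no enzyme.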
D2 ag: activates the human D2 dopamine receptor; P14416; actives 0.084% (n = 360,000); DiscoveRx PathHunter D2 beta-arrestin, luminescence, 90 min; 100% = 57 uM dopamine signal; AID 624465; activation, % (test concentration not listed); in the data active = activation above about 40%; inconclusive = about 15% to 40%; inactive = below about 15%; further: compound concentration not given in the record; the text of the record calls up to 30% inactive
Target sequence (P14416 whole entry, looked up): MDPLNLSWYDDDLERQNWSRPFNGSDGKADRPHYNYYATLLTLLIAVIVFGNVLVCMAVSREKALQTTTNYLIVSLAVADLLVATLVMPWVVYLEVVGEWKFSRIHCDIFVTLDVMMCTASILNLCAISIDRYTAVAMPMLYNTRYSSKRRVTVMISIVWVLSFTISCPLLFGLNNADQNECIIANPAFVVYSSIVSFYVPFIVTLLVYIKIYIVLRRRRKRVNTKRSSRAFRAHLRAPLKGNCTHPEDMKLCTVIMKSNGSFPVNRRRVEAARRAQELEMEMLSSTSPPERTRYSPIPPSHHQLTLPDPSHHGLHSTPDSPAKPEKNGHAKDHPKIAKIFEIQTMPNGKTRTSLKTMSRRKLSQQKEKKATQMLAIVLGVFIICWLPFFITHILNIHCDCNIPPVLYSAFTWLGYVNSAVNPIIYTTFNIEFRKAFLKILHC
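DiscoveRx PathHunter D2 beta-arrestin cells (2,100/well) attached overnight, then compound-stimulated 90 min at 37 C in HBSS/10 mM HEPES/0.1% Tween-20 buffer; beta-galactosidase complementation read by luminescence after 1 h at ambient temperature. Dopamine 57 uM final (EC100) as control.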
Sfp PPTase inh: blocks B. subtilis Sfp PPTase activity; Q9F4F7; Biochemical Sfp PPTase activity, qHTS; Potency, µM, inactives show max response, negative = inhibition, most hits filed as inhibitors; actives 3.5% (n = 310,000); active means well fitted inhibition curve with a large enough effect; inconclusive means small, poorly fitted or top-dose-only effect, or another doubt; inactive means no such curve, though single readings can be large or run the other way;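 further: the enzyme is Sfp with the accession as filed and its product quenches rhodamine fluorescence; potency means the concentration at half of the fitted maximal effect; 0% = enzyme reaction without inhibitor and -100% = no enzyme wells; top concentration of the series not given in the record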
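With Hepes-Na pH 7.6 buffer containing 10 mM MgCl2, Sfp (15 nM) modified BHQ-2-YbbR (12.5 uM) using rhodamine-CoA (5 uM). Two reads 30 minutes apart at 525/598 nm yielded each well's rate.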
gsp agonist: agonists of gsp mutant (McCune-Albright syndrome). AID 624287. gsp mutant cells, cAMP HTRF, 30 min; control for the full effect not named in the record. Potency, µM (doses to about 76.9 µM), for inactives: at the top dose activation (cAMP increase), hits mostly activators. actives 0.13% (n = 340,000); active = well fitted activation curve with a large enough effect; inconclusive = small, poorly fitted or top-dose-only effect, or another doubt; inactive = no such curve, though single readings can be large or run the other way; cell line not stated here;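 further: phosphodiesterase inhibitor Ro 20-1724 added with compounds to block cAMP breakdown; potency means the concentration at half of the fitted maximal effect; nearly all actives have a fitted effect of over 60% in size; about a fifth of the inactives were tested at one dose only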
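Cells in DMEM/10% FBS with G418 were pretreated with compounds in DMSO plus […] (300 uM stock) for 30 min at 37C. cAMP was measured by HTRF (cAMP-d2 plus anti-cAMP antibody-K) after 30 min at room temperature.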
PINK1 modulator: PINK1 expression modulation; PINK1 immunofluorescence, high-content cytometry, 24 h; actives 0.2% (n = 410,000); Potency, µM (doses to about 76.6 µM), without a hit: top-dose activation (PINK1 increase), actives largely listed as activators; AID 624263; active = well fitted activation curve with a large enough effect; inconclusive = small, poorly fitted or top-dose-only effect; inactive = flat fitted curve, though single readings scatter; cell line not stated here;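 further: potency means the concentration at half of the fitted maximal effect; % of control where 0% means no effect; nearly all actives have a fitted effect of over 65% in size; a mitochondrial uncoupler was the plate control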
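Fluorescence from anti-PINK1 antibody, together with nuclear and cell stains, was scanned on a laser-scanning cytometer. Before staining, stable-line cells were incubated 24 hours with compounds at 5 concentrations; primary antibody 12 h at 10 degrees C.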
Menin-MLL FL inh: menin-MLL binding inhibition, fluorescein peptide; Fluorescence polarization, fluorescein-MLL peptide displacement from menin; FP activity change, % at 61.4 µM; 290,000 tested, under 10 active; inconclusive = falling polarisation curve, or a change in total fluorescence; inactive = total fluorescence flat and polarisation flat or rising; no compound was filed as active; the % refers to the polarisation; negative = inhibition;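 further: % of control where 0% means no effect; inhibitors lower the polarisation; unlabelled MLL peptide was the positive control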
Numbers without * were called inactive; ? = inconclusive; . = no result given; & = joins results of further samples; [ ] = remark or other dose.

Second line of a record: gsp antagonist | ClpP mod | D2 ag | Sfp PPTase inh | gsp agonist | PINK1 modulator | Menin-MLL FL inh
> CCN(CC)S(=O)(=O)c1ccc(/C=C/C(=O)OCC(=O)NNC(=O)c2ccc(OC)cc2)cc1
    -7% | 1.6% | -4.4 | . | -10% | -1.9% | .
> O=C(O)C1CCCCC1C(=O)NCCC(c1ccccc1)c1ccccc1 (stereo unspecified)
    -14% | -0.3% | -1.7 | 23% | 5% | . | -0.7
> COC(=O)[C@@H](Cc1ccccc1)NC(=O)Cn1cc(C)c(=O)[nH]c1=O
    6% | -0.3% | -2.0 | . | . | 1.6% | .
> Cc1cc(/C=C(\C#N)C(=O)NCc2ccccc2)cc(C)c1O
    -2% | . | -3.2 | 0% | -15% | 9.9% | .
> O=C(O)CCCCCn1c(SCc2cc(=O)n3ccccc3n2)nc2ccsc2c1=O
    -5% | ? | 1.3 | 3% | ? | -0.4% | 4.0
> CCC(=O)Nc1ccccc1C(=O)OC(c1ccccc1)c1ccccc1
    -7% | ? | -4.7 | -5% | 14% | 15% | 0.8
> COc1cc(C)ccc1OCC(=O)Nc1ccc2c(c1)OCO2
    -5% | -1.3% | -2.4 | . | -14% | -0.4% | .
> CCOC(=O)CSc1nc(-c2ccccc2)nc2ccccc12
    -6% | -1.2% | 0.5 | 1% | ? | -2.4% | 2.2
> CC(NC(=O)OCc1ccccc1)c1ccccc1 (stereo unspecified)
    18% | 0.0% | -4.4 | . | -1%[15.4 µM] | 1.2% | .
> CCn1c(SCC(=O)c2ccc3ccccc3c2)nnc1-c1cccs1
    -28% | -27% | 1.0 | -22% | -8% | -1.8% | 2.2
> CCOC(=O)C1=C(C)Nc2nc(C)nn2C1c1cc(OC)ccc1OC (stereo unspecified)
    -1% | 3.2% | 0.8 | 32%[activator] | 27% | -0.4% | 0.9
> Cc1ccc(S(=O)(=O)Nc2nc(CN3CCOCC3)nc3sc(C)c(C)c23)cc1
    -34% | -1.5% | -3.6 | . | 2% | 0.4% | .
> Cc1ccc(Cn2c(Cc3ccccc3)nc3ccccc32)cc1
    -20% | -3.0%&0.5% | 0.1 | -4% | 28% | 1.1%&9.1% | 1.3
> Cn1c(CNc2nc(-c3ccccc3)cs2)nnc1SCC(=O)OC1CCCCC1
    -20% | -1.7% | -1.2 | -7% | -35% | 4.9% | -0.5
> NC(=O)c1ccc(NC(=O)CN2C(=O)NC3(CCCCCCC3)C2=O)cc1
    7% | . | 0.7 | . | -4% | -0.7% | .
> O=C(Nc1ccccc1F)C1COc2ccccc2O1 (stereo unspecified)
    0% | -1.6% | 0.3 | 10% | 4% | 2.0% | 3.2
> CN(C(=O)COC(=O)CCC(=O)c1ccc(F)cc1)C1CCCCC1
    -1% | . | -3.6 | . | 23% | -2.1% | .
> CCCCn1nnnc1NCc1cc(Cl)c(OC)c(OC)c1
    -1% | 1.1% | 4.1 | 20% | 19% | 1.0% | -3.1
> CC(=O)NC(C)(c1ccccc1)c1nc(-c2csc3ccccc23)cs1 (stereo unspecified)
    . | -4.2% | 4.5 | . | . | 2.4% | .
> CC1(C(=O)Nc2ccc3ccccc3c2)CCC(=O)N1CC(F)(F)F (stereo unspecified)
    . | -1.6% | 4.9 | . | . | -1.4% | .
> Cc1cc(C(=O)OCC(=O)Nc2cccc(S(=O)(=O)N3CCOCC3)c2)c(C)o1
    21% | 1.2% | -3.0 | -8% | 1% | 0.5% | -6.7
> Cc1cc(NC(=O)CSc2nnc(-c3ccc(Cl)s3)o2)no1
    -17%[15.4 µM] | 2.4% | -2.2 | 15% | ? | 1.2% | 4.8
> C#CCOCCOCCOCCNc1nc(N2CCN(C(=O)CCCCCCCCCCNC(=O)Cn3cc(C[C@@H](C)O)nn3)CC2)nc(N2CCN(C(=O)CCCCCCCCCCNC(=O)[C@@H](CCC(=O)O)n3cc(CCCCCN)nn3)CC2)n1
    2% | 0.7% | -0.7 | . | . | 0.6% | .
> Cn1c(=O)c2c(nc(Oc3ccccc3N)n2C)n(C)c1=O
    -1% | 0.1% | 2.0 | 14% | 12% | 0.3% | -1.3
> COc1ccc(CC(NC(C)=O)C(=O)NC2CCN(C(=O)C3CCCCC3)CC2)c(OC)c1 (stereo unspecified)
    15% | . | -1.7 | -18% | -1% | 0.8% | 3.8
> O=C(CSc1nc2ccccc2s1)N1CCN(C(=O)c2ccco2)CC1
    2% | 0.8% | -2.2 | -11% | -8% | -1.9% | -1.2
> Cc1ccc(C(=O)Nc2ccc3c(c2)OCO3)cc1S(=O)(=O)N1CCCC1
    -17% | 1.4% | -0.7 | 2% | 0% | -0.6% | 1.0
> O=C(Nc1ccc(Br)cc1)c1cnc[nH]1
    11% | 0.4% | -4.5 | 1% | ? | 0.1% | 9.8
> C#CCN1C(C)=C(C(=O)OC)C(c2cccc([N+](=O)[O-])c2)C(C(=O)OCC)=C1C (stereo unspecified)
    ? | 0.7% | -2.8 | . | . | 1.5% | -1.6
> COc1ccc(C(=O)N2CCN(S(=O)(=O)c3ccc(Cl)cc3)CC2)cc1S(=O)(=O)N1CCOCC1
    -28% | 0.9% | -3.3 | . | ? | -0.2% | .
> COc1cc(C(=O)NCc2nnc(SCC(=O)N3CCCCCC3)o2)cc(OC)c1OC
    10% | -5.2% | 3.7 | 6% | 3% | -0.7% | .
> CCOc1ccc2nc(N3CCC(C(=O)NC4CCCCC4)CC3)sc2c1
    -3% | -0.1% | 0.1 | 4% | 5% | 1.3% | -1.6
> CC(=O)c1sc(NC(=O)c2ccc3c(c2)OCO3)nc1C
    -12% | -5.3% | -5.4 | 5% | ? | 3.7% | .
> Cn1c(=O)[nH]c(=O)c2c1nc1n2CCCS1
    3%[15.4 µM] | -1.2% | -3.8 | 4% | ? | 0.4% | 0.2
> O=C(COC(=O)CCOc1ccccc1)NCCC1=CCCCC1
    -2% | . | 2.6 | 3% | 0% | -1.2% | -2.4
> COCCn1c(=O)c2c(nc3n2CC(C)CN3Cc2ccccc2)n(C)c1=O (stereo unspecified)
    0% | -3.3% | -8.0 | 12% | 23% | -0.3% | -7.5
> Cc1onc(-c2ccccc2Cl)c1C(=O)Nc1sc2c(c1C(N)=O)CCC(C)C2 (stereo unspecified)
    -18% | ? | -1.5 | -1% | -2% | -2.3% | -1.2
> CC1CCN(c2c(NCC3CCC(C(=O)NCc4ccc(F)cc4)CC3)c(=O)c2=O)CC1 (stereo unspecified)
    -4% | 0.9% | -2.7 | 12% | 5% | 0.3% | 3.6
> COc1ccc(Cl)cc1NC(=O)CN(C)C(=O)c1ccc2n[nH]nc2c1
    -10% | -0.3% | -2.8 | . | ? | -1.3% | .
> Cc1ccc(C)c(NC(=O)CN(C)C(=O)c2cc3ccccc3oc2=O)c1
    7% | -15% | -3.2 | . | 22% | 0.2% | .
> COc1ccc(C(=O)c2sc(Nc3ccccc3)nc2C)cc1
    18% | -18% | -3.7 | -10% | -1%[15.4 µM] | -0.5% | 6.0
> Cc1ccc(Oc2nc3c(c(=O)n(Cc4ccccc4F)c(=O)n3C)n2C)cc1
    ? | -0.8% | -4.7 | 5% | 0% | 0.8%[38.3 µM] | -0.7
> O=C(CSc1nc(-c2cccs2)cc(C(F)(F)F)n1)NCCCN1CCOCC1
    3% | . | 0.7 | 3% | -6%[15.4 µM] | 0.2% | 1.3
> CC(=O)Nc1cccc(C(=O)N2CCC(n3nccc3NC(=O)CC(C)C)CC2)c1
    5% | -1.2% | -0.1 | 1% | -3% | -0.4% | .
> O=C(CN1C(=O)S/C(=C\c2ccc(F)cc2)C1=O)Nc1cccc(S(=O)(=O)NCc2ccco2)c1
    -60% | 2.0% | -2.2 | 15% | 13%[15.4 µM] | 17% | ?
> CCc1oc(C(=O)OC)cc1CSC(=N)N
    5% | . | -4.8 | 12% | -10%[15.4 µM] | 1.5% | -2.7
> CCc1nnc(NS(=O)(=O)c2ccc(NC(=O)/C=C/C(=O)O)cc2)s1
    2% | . | -5.8 | 50µM* | -5% | 0.0% | 0.0
> CC(C)C(=O)Nc1ccc(C(=O)NCc2cccnc2)cc1
    8% | -1.2% | -1.2 | 17% | -4% | -1.3% | -0.3
> CC(NC(=O)c1cc([N+](=O)[O-])cc([N+](=O)[O-])c1)c1ccc(-n2ccnc2)cc1 (stereo unspecified)
    -18% | 0.4% | 13 | 14% | -4% | -2.8% | .
> C[C@H](CO)N1C[C@H](C)[C@H](CN(C)C(=O)c2ccccc2)OCc2ccccc2-c2c(n(C)c3ccccc23)C1=O
    . | -3.4% | -2.7 | . | -90%[inhibitor] | -0.9% | .
> C=CC1=C(C(=O)O)N2C(=O)[C@@H](NC(=O)/C(=N/OCC(=O)O)c3csc(N)n3)[C@H]2SC1
    0% | -1.6% | 1.6 | . | . | 0.5% | .
> CCCCCCCCCCCCN1[C@@H](CC(C)=O)c2cc(C(F)(F)F)ccc2S1(=O)=O
    6% | -0.6% | -4.3 | . | -2% | ? | .
> CN(C)c1ccc(P(=O)(OC2CCCCC2)C(Nc2ccccc2)c2cccnc2)cc1 (stereo unspecified)
    -5% | 0.0% | -4.3 | -7% | 7%[15.4 µM] | 22% | 4.0
> CC1(C)SC2c3ccccc3C(=O)N2[C@@H]1C(=O)NC1CCCC1 (stereo partly specified)
    0% | . | -3.1 | -5% | 0% | 0.4% | .
> Cc1ccc(-c2cc(-c3ccccc3Cl)[nH]n2)c(O)c1
    -21% | -1.1% | 1.4 | 18% | 1% | 7.3%[38.3 µM] | 2.2
> Cc1nnsc1C(=O)NC(=O)Nc1ccc(F)c(Cl)c1
    -27% | -7.1% | 2.1 | 6% | 3%[15.4 µM] | 7.5% | 3.1
> O=C(OCC(=O)N1CCCc2ccccc21)c1ccccc1NCCO
    16% | 32µM* | -5.6 | . | 21% | 1.4% | .
> N/C(=N\OS(=O)(=O)c1ccccc1)c1ccccn1
    11% | ? | -1.2 | -20% | 1% | 0.7% | 2.3
